High-throughput results from PubChem.
UCH37 inh: inhibitors of human deubiquitinating enzyme UCH37; Q9Y5K5; inhibition, % (no concentration beside the values); AID 588478; 330,000 compounds, 0.33% hits; purified proteasome/UCH37, Ub-AMC cleavage fluorescence;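 active = mean of two replicates above 20%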;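 note: 0% = compound-free wells with enzyme and 100% = wells lacking proteasome; stock transfer was 100 nL into about 20 µL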
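Assay system: Proteasome-bound UCH37. Buffer or medium: pH 7.4 Tris-HCl (50 mM) with ovalbumin, ATP-MgCl2, DTT. Incubation: 30 min preincubation with enzyme, 25 min cleavage at room temperature. Measured by: fluorescence, ex 355 nm, em 460 nm. Read-out basis: percent inhibition. Control set: wells without proteasome as full block, compound-free enzyme plus substrate as uninhibited.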
ALR H2O2 inh: human ALR oxidase inhibition via reduced H2O2; 290,000 compounds, 3.8% hits; AID 485317; purified ALR, DTT oxidation, H2O2 HRP-luminol luminescence; P55789; inhibition, % (concentration not given with the values);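 active = mean and each replicate at 75% or more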;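 note: stock transfer was 7.5 nL into about 7.5 µL; 0% = neutral wells and 100% = wells with inactivated enzyme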
Target sequence (P55789 whole entry, looked up): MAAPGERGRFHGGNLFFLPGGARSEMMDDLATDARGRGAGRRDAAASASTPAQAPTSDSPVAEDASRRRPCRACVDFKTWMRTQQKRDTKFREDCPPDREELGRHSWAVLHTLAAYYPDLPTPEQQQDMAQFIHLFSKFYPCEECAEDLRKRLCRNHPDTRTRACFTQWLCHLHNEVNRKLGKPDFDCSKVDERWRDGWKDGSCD
HNF4A DNA FP: change in binding of human HNF4 alpha to DNA; P41235; HNF4a-FITC DNA binding, fluorescence polarization, 1 h; activity change, % at 10 µM; 360,000 compounds, 0.3% hits; in the data active = activity change above about 30%, passing the limit was not always enough;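 note: controls were the assay level and a saturating level of protein; the project sought stronger binding though the title names inhibitors; some compounds called inactive have numbers as strong as hits; positive values seem to mean higher polarization but the record does not say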
Target sequence (P41235 whole entry, looked up): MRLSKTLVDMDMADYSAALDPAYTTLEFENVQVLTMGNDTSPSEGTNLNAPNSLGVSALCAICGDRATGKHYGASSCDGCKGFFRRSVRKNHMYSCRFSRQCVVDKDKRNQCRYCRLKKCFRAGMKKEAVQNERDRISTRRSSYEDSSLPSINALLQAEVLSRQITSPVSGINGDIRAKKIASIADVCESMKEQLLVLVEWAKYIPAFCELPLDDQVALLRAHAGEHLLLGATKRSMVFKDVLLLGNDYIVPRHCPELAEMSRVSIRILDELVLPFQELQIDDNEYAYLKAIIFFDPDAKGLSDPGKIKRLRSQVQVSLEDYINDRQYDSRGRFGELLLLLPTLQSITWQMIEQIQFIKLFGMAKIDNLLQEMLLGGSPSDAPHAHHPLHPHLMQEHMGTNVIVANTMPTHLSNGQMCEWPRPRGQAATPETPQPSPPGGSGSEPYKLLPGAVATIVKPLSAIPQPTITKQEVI
B2AR ag: activates human beta-2 adrenergic receptor causing internalization; P07550; Am2.2-beta2AR cells, FAP receptor internalization, flow cytometry; reference of the scale not given here; response, % (test concentration not listed); 340,000 compounds, 0.43% hits;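 active = response above a set limit, near 3 SD of response in nonfluorescent compounds, cut at about 42% in these data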;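 note: stock transfer was 100 nL into about 11 µL; a reference agonist was the positive control; negative values mostly stem from fluorescent compounds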
LANA-H2B inh: blocks KSHV LANA binding to histone H2A/H2B; Q9QR71; cell-free LANA-H2A/H2B peptide, fluorescence polarization; inhibition, % (no concentration beside the values); 320,000 compounds, 0.6% hits; in the data active = inhibition mostly above about 10%, no sharp cut-off; inactive = mostly below about 6.7%;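 note: stock transfer was 7.5 nL into about 10 µL; 0% = median of vehicle wells and 100% = median of positive control wells; one replicate is shown; the record names a cut of 25% in any replicate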
Ecoli growth: blocks Escherichia coli growth. OD600, 23 h; stronger effect = lower value. OD600 absorbance (no concentration beside the values). 330,000 compounds, 0.21% hits;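 active = OD600 absorbance below the run mean of sample wells minus 3.6 SD, in any replicate, cut at about 0.56 in these data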;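 note: stock transfer was 300 nL into about 60 µL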
FGF22 binding: FGF22 (human) thermal shift binding. calls only at 9.99 µM. 340,000 compounds, 1.5% hits. recombinant FGF22 thermal shift, SYPRO orange fluorescence; percent of sucrose octasulfate shift, DMSO zero. Q9HCT0. AID 651658;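 active = melting point raised past a set limit in the mean and every replicate; three in four hits are not shown here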
Target sequence (Q9HCT0 whole entry, looked up): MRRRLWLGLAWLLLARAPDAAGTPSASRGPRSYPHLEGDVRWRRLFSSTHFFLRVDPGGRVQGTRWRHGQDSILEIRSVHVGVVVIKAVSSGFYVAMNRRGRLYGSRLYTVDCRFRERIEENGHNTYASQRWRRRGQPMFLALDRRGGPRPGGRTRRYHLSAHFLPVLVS
Numbers without * were called inactive; i = inactive; / = not tested or not shown; & = joins results of further samples. An excerpt; count on the stated rates, not on these rows.

Order of values – UCH37 inh, ALR H2O2 inh, HNF4A DNA FP, B2AR ag, LANA-H2B inh, Ecoli growth, FGF22 binding
(1) Cn1c(=NC(=O)CN2C(=O)C3CC=CCC3C2=O)sc2ccccc21 (stereo unspecified)
    4.1&4.7, -10, 1.9&-1.6, -6&-18, 2.5, 0.7&0.7, i
(2) Cc1cccc(OCCSc2cc(C)nc(N)n2)c1
    -3.5, -9, -4.3, -11, 2.0, 0.7, /
(3) COc1cc(/C=C/C(=O)OCC(=O)NC(=O)NC(C)C)ccc1OCC#N
    -40, -2, 7.1, 10, -2.7, 0.68, /
(4) O=C1Nc2cc(C(=O)NCCCN3CCCC3)ccc2S/C1=C/c1ccccc1F
    7.0, 5, 3.1, 9, -0.6, 0.66, i
(5) COc1ccc(C(=O)Nc2ccc3c(c2)OCO3)cc1OC
    3.9, -7, -1.0, 3, 1.8, 0.69, i
(6) O=C(COC(=O)[C@@H]1CC(O)CN1S(=O)(=O)c1ccccc1[N+](=O)[O-])c1ccccc1 (stereo partly specified)
    2.3, -14, -3.0, -6, 0.5, 0.71, i
(7) COc1ccc(-c2nc3ccc(C)cn3c2NCc2ccc3c(c2)OCO3)cc1
    -208, 31, -0.2, -1, -1.9, 0.68, i
(8) COC(=O)c1ccc(CNC(=O)C23CC4CC(CC(C4)C2)C3)cc1
    -1.8, 1, -3.7, 4, 2.0, 0.71, i
(9) COc1ccc(-c2noc(CCC(=O)NC3CCCCCC3)n2)cc1
    0.0, 3, 2.6, 0, 0.5, 0.71, i
(10) C(=N\Nc1nc2ccccc2[nH]1)/c1ccc2ncccc2c1
    /, 13, -2.1, -2, -0.9, /, i
(11) CCN1C(=O)/C(=C2\C=Cc3ccccc3N2CC)SC1=S
    3.8, /, 17, -18, -3.7, 0.71, /
(12) O=C1C2C3C=CC(C3)C2C(=O)N1c1n[nH]c(-c2ccccc2)n1 (stereo unspecified)
    2.4, -2, -2.5, 1, -4.0, 0.67, /
(13) CCOc1ccccc1-n1c(SCC(=O)NCc2ccco2)nnc1-c1ccncc1
    1.5, -2, 0.1, 3, 2.1, 0.65, /
(14) Cc1cccc(NC(=O)c2nc[nH]c2C(=O)N[C@@H](CC(C)C)C(=O)OCc2ccccc2)c1
    0.9, -10, 1.9, 12, 0.3, /, i
(15) Cc1ccc(S(=O)(=O)N2CCCCC2)cc1NC(=O)COC(=O)c1ccc(=O)[nH]c1
    2.2, -2, 0.3, 3, -0.9, 0.65, i
(16) CCc1cc(C(=O)OC)c(NC(=O)CCC(=O)O)s1
    4.5, -4, 2.8, 0, 0.5, 0.65, /
(17) O=C(COC(=O)CCSc1ccccc1)NCc1ccccc1Cl
    -0.4, 9, 0.2, -1, -3.8, 0.69, /
(18) O=C(NC1CCS(=O)(=O)C1)c1ccccc1Cl (stereo unspecified)
    -3.2, 2, 4.1, 4, -6.5, 0.69, i
(19) CSc1ccccc1NC(=O)CN(C)CC(=O)Nc1ccccc1N1CCOCC1
    2.5, /, -4.5, -4, /, 0.69, i
(20) CN(C)CCNCCCNc1c2ccccc2nc2cccc([N+](=O)[O-])c12
    /, /, -6.9, -3, /, /, i
(21) Cc1ccc(NC(=O)CCc2c(C)nn(-c3ccc(N4CCOCC4)nn3)c2C)c(C)c1
    0.0, -2, -0.2, -13, 5.3, 0.69, i
(22) CN(C)c1ccc(C(=O)N/N=C/c2ccccn2)cc1
    /, 49, 0.0, 3, -7.0, /, i
(23) CCc1ccc(OCc2nnc(NC(=O)c3cccs3)s2)cc1
    1.2, -11, -1.6, -6, 5.2, 0.73, /
(24) COc1ccc(N(CC(=O)NCc2ccccc2C)S(=O)(=O)c2ccc(C)cc2)cc1OC
    -0.8, /, -1.3, 3, 1.1, 0.67, i
(25) Cc1noc(C)c1C(=O)N1CCN(S(=O)(=O)c2ccc(F)cc2)CC1
    0.6, -8, -5.9, 4, -2.6, 0.69, /
(26) CC1Cc2cc(/C(O)=C3/C(=O)C(=O)N(CC4CCCO4)C3c3ccco3)ccc2O1 (stereo unspecified)
    11, 4, -5.2, -4, 1.5, 0.74, /
(27) CCOc1ccc(NC(=O)CSc2nc(C)cc(C)n2)cc1
    0.4, /, -0.2, -4, 2.0, 0.65, /
(28) COc1ccc(OC)c(NC(=O)CSc2nnc(Cn3nnc4ccccc43)n2C)c1
    2.5, -22, -3.1, 10, -5.3, 0.69, /
(29) CC#CC[N+](C)(CC#CC)CC(=O)c1ccccc1
    2.7, -4, -1.7, 3, -1.5, 0.69, i
(30) CC(C)(C)N(NC(=O)c1ccccc1)C(=O)c1ccc(C(=O)N(NC(=O)c2ccccc2)C(C)(C)C)cc1
    0.7, -3, -1.0, 4, 0.7, 0.69, /

One compound at a time (already shown). Screens in order: UCH37 inh	ALR H2O2 inh	HNF4A DNA FP	B2AR ag	LANA-H2B inh	Ecoli growth	FGF22 binding
`COc1ccc(N(CC(=O)NCc2ccccc2C)S(=O)(=O)c2ccc(C)cc2)cc1OC` is listed as -0.8	/	-1.3	3	1.1	0.67	i
`O=C1Nc2cc(C(=O)NCCCN3CCCC3)ccc2S/C1=C/c1ccccc1F` is listed as 7.0	5	3.1	9	-0.6	0.66	i
`CN(C)CCNCCCNc1c2ccccc2nc2cccc([N+](=O)[O-])c12` is listed as /	/	-6.9	-3	/	/	i
`COc1ccc(OC)c(NC(=O)CSc2nnc(Cn3nnc4ccccc43)n2C)c1` is listed as 2.5	-22	-3.1	10	-5.3	0.69	/
`CN(C)c1ccc(C(=O)N/N=C/c2ccccn2)cc1` is listed as /	49	0.0	3	-7.0	/	i

Rewritten with the structure last: part of the list above.
| nr | UCH37 inh | ALR H2O2 inh | HNF4A DNA FP | B2AR ag | LANA-H2B inh | Ecoli growth | FGF22 binding | molecule |
| --- | --- | --- | --- | --- | --- | --- | --- | --- |
| 29 | 2.7 | -4 | -1.7 | 3 | -1.5 | 0.69 | i | CC#CC[N+](C)(CC#CC)CC(=O)c1ccccc1 |
| 18 | -3.2 | 2 | 4.1 | 4 | -6.5 | 0.69 | i | O=C(NC1CCS(=O)(=O)C1)c1ccccc1Cl (stereo unspecified) |
| 24 | -0.8 | / | -1.3 | 3 | 1.1 | 0.67 | i | COc1ccc(N(CC(=O)NCc2ccccc2C)S(=O)(=O)c2ccc(C)cc2)cc1OC |

(more compounds)
Order of values – UCH37 inh, ALR H2O2 inh, HNF4A DNA FP, B2AR ag, LANA-H2B inh, Ecoli growth, FGF22 binding
(31) COc1ccc(Br)cc1/C=N/n1c(C)nc2ccccc2c1=O
    /, /, 0.8, 37, /, /, i
(32) COc1ccc2c(C)cc3nnnn3c2c1
    0.5, 3, 3.0, -3, 6.6, 0.69, i
(33) COCCNC(=O)c1ccc2c(c1)ncn2-c1ccc(F)c(F)c1
    1.6, /, 2.9, -1, -5.4, 0.78, /
(34) Cc1[nH]n(-c2ccccc2)c(=O)c1C=Nc1ccc2[nH]c(=O)[nH]c2c1
    4.8, -4, 1.9, -11, 1.5, /, /
(35) O=C(NC[C@H]1CCCO1)c1cccc2c1C(=O)c1ccc(-c3ccc(F)cc3OCc3ccccc3)cc1S2(=O)=O
    -1.0, 6, 3.4, 19, -2.2, /, i
(36) O=C(NNC(=S)NC(=O)c1cccs1)c1ccc(NC(=O)c2ccccc2)cc1
    1.0, /, -0.2, -7, /, 0.62, /
(37) Cc1cccc(OCc2nn[nH]n2)c1C
    2.7, /, 1.7, 6, -2.0, 0.67, i
(38) COc1ccc(C(=O)Nc2ccc(N3CCOCC3)cc2)cc1S(=O)(=O)N1CCCC1
    3.7, /, -1.9, 2, /, 0.65, i
(39) CC(C)c1ccc(S(=O)(=O)N2CCN(C(=O)c3cc([N+](=O)[O-])ccc3N3CCOCC3)CC2)cc1
    6.1, -1, -0.8, -1, 4.2, 0.74, i
(40) CCOC(=O)c1c(-c2cccc3ccccc23)csc1NC(=O)C1C2CCC(O2)C1C(=O)O (stereo unspecified)
    1.4, /, 5.0, 1, 1.2, 0.68, i
(41) CCc1noc(C)c1C(=O)Nc1cccc(S(=O)(=O)N2CCCCCC2)c1
    0.3, -1, 4.6, 0, 1.7, 0.66, i
(42) O=C(Nc1ccc2ccccc2c1)NC1CCS(=O)(=O)C1 (stereo unspecified)
    3.6, -16, 5.4, 8, -3.0, 0.72, i
(43) CC[n+]1ccc(C[n+]2ccccc2)c2ccccc21
    2.1, /, 1.2, -4, -4.7, 0.64, /
(44) O=C1CC(N2CCC(O)(c3ccc(Cl)cc3)CC2)C(=O)N1Cc1ccc(N2CCCC2=O)cc1 (stereo unspecified)
    0.1, -2, 3.6, -3, 3.1, 0.72, /
(45) Cc1c(C(=O)NC(C)C)c(-c2ccccc2)nn1-c1ccccc1
    4.7, /, 2.7, -15, /, 0.71, i
(46) Cc1ccc(NC(=O)C2CCN(S(=O)(=O)c3cccs3)CC2)c(O)c1
    2.7, -1, 1.5, 3, -2.5, 0.72, i
(47) O=C1OC(c2ccccc2)c2ccc3ccccc3c21 (stereo unspecified)
    0.5, -1, -2.6, 4, 1.9, 0.71, /
(48) CCOC(=O)C1CCN(C(=O)COC(=O)COc2ccccc2OC)CC1
    -1.5, -13, 1.5, 9, 5.1, 0.71, /
(49) CCN(CC)c1ccc(/C=C(/C#N)c2nc3ccc(C)cc3[nH]2)c(OC(C)C)c1
    12, 25, -42, -374, 4.5, 0.74, i
(50) CCCCc1cc(-c2n[nH]c(=S)o2)c2ccccc2n1
    6.5, 5, 2.5, 3, 0.4, 0.67, i
(51) CC(C)c1ccc(/C=C/C(=O)CCC(=O)O)cc1
    3.4, 98*, 5.3, 6, 1.6, 0.77, i
(52) CCCn1nc(C(=O)NNC(=O)CCCOc2ccc(C)cc2)c2ccccc2c1=O
    1.8, 1, 3.1, -7, -4.7, 0.7, i
(53) COc1cc2c(cc1OC)[C@@H](NC(=O)c1ccc(C(F)(F)F)cc1)[C@H](OCc1ccccc1)C2
    2.7, /, 2.2, 7, /, 0.72, i
(54) Cc1nn(-c2ccccc2)c(C)c1/C=N/NC(=O)c1cc(-c2ccc(Br)s2)[nH]n1
    /, -3, -0.4, 18, 3.8, /, /
(55) CCOc1nc2ccccc2nc1C
    0.2, -2, -1.1, 1, 0.6, 0.76, /
(56) COC(=O)CSc1cc(C(=O)c2nccn2C)c2ccccc2n1
    4.3, -29, 0.4, 8, 4.5, 0.71, /
(57) CCN(CC)CCNC(=O)NC1CCCCC1
    3.9, -13, 4.6, 2, 0.0, 0.69, /
(58) COc1ccc(C(=O)N(Cc2ccco2)C(C(=O)NC2CCCC2)c2ccc(O)cc2)cc1OC (stereo unspecified)
    0.4, 3, -5.3, 5, -0.5, 0.7, /
(59) CC#CCN1c2ccccc2[C@]23C[C@@H](C(=O)OC)N(C(=O)c4cc(C)oc4C)C2=NC(C(=O)OC)=C(C(=O)OC)[C@H]13
    -1.6, 5, -1.3, 6, -1.2, /, i
(60) Cc1c(N2C(=O)/C(=C\C3CC=CCC3)SC2=S)c(=O)n(-c2ccccc2)n1C (stereo unspecified)
    3.9, /, 1.1, 11, /, 0.71, i
(61) CCOC(=O)C1=C(N)N2C(=O)C(C)SC2=C(C(=O)OCC)C1c1cc(OC)c(OC)c(OC)c1 (stereo unspecified)
    1.0, -6, 1.7, 0, 2.3, 0.71, i
(62) COc1cc2c(cc1OC)C1Cc3ccc(OC)c(OC)c3CN1CC2 (stereo unspecified)
    4.2, -29, 0.4, -2, -0.4, 0.7, /
(63) CCOC(=O)C1CCN(C(=O)c2ccc3c(c2)NC(=O)/C(=C\c2ccc(C)cc2)S3)CC1
    /, -2, 0.0, 7, 12, /, i
(64) COc1ccc(-c2nnc3sc(C(C)N4C(=O)c5ccccc5C4=O)nn23)cc1 (stereo unspecified)
    3.8, -10, 0.7, -6, 0.1, 0.76, i
